Screens (PubChem)
YopH inh: blocks Yersinia enterocolitica YopH tyrosine phosphatase. fluorescence Ex485/Em525. inhibition, %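 (about 10 µM by stock and volumes)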. actives 0.16% (n = 140,000). AID 898;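 active means inhibition of 50% or more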;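 further: controls were vehicle for no effect and minimum signal wells for full effect; inactives centre near -20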
Mtb growth: M. tuberculosis H37Rv growth inhibitors, H37Rv strain (AID 1626); inhibition, % at 10 µM; hits with a dose series show IC50 in µM; actives 0.95% (n = 220,000); M. tuberculosis H37Rv growth inhibition; higher % means a stronger effect;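 active means confirmed in a dose series; inconclusive means inhibition above 80% but not taken into the dose series; inactive means below 80% or under 30% at every dose of the series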;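 further: bacteria incubated seven days before Alamar blue readout; 0% = bacteria only wells and 100% = bacteria with antibiotic wells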
Arbovirus inh: blocks arbovirus infection | AID 1251 | inhibition, % at 10 µM | arbovirus infection cell-based antiviral screen | actives 0.37% (n = 200,000);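 active means inhibition from about 30%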;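 further: bluetongue infection of BSR cells; cell survival read as ATP light after 72 h; 0% = infected wells without compound and 100% = uninfected wells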
RecA splice inh: Mtb RecA intein splicing inhibition; actives 0.75% (n = 290,000); inhibition, %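 (about 9 µM by stock and volumes)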; AID 2221; P9WHJ3; cell-free RecA intein splicing, fluorescence; in the data active means inhibition above about 30%; inconclusive means no clear call, values can overlap the other calls;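 further: 0% = vehicle wells and 100% = reference inhibitor control wells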
Target sequence (P9WHJ3 whole entry, looked up, canonical isoform): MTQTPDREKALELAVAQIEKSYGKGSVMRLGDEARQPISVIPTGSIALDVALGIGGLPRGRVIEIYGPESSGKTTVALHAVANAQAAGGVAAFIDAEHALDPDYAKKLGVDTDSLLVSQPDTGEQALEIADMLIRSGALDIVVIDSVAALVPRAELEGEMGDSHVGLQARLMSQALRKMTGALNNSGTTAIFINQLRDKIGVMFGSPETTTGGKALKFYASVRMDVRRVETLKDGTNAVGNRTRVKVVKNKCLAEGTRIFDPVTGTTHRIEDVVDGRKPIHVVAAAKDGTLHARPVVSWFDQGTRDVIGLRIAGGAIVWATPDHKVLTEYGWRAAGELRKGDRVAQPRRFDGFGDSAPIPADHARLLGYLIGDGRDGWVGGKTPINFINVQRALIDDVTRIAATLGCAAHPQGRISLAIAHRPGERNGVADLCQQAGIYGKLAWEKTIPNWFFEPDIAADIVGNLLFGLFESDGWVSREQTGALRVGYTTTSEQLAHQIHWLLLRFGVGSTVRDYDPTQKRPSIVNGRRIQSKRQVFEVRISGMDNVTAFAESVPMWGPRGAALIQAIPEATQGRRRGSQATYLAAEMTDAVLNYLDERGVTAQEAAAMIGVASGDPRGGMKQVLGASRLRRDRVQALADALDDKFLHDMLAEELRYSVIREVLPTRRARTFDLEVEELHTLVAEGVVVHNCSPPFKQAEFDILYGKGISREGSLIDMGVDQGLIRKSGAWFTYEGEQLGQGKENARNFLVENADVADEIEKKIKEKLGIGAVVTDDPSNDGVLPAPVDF
Mtb bLac sens: beta-lactam sensitization of Mtb H37Rv; M. tuberculosis H37Rv growth with meropenem, percent inhibition; hits of this screen are not shown here; inhibition, % at 25 µM; actives 0.27% (n = 330,000);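 active means about 74% or more and at least 40 points above the plate without the antibiotic, then above 30% in a dose series; inconclusive means first-round hits that could not be retested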;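 further: growth measured after seven days incubation then overnight dye step; 0% = bacteria only wells and 100% = bacteria with antibiotic; twin plates without the antibiotic show which effects depend on it; some results filed as inactive read as strong as hits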
Arbovirus inh repeat: further read-out of Arbovirus inh, marked with its call; inhibition, %; measured here: 10K subset replicate screen; many hits read low in the repeat;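 first of two repeat runs on a subset; 0% = infected and 100% = uninfected wells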
Active calls of the source: *; u = inconclusive; x = not tested or not shown; & = joins results of further samples. This is a subset; count on the stated rates, not on these rows.

SMILES | YopH inh | Mtb growth | Arbovirus inh | RecA splice inh | Mtb bLac sens | others
CC/C(=C(\c1ccccc1)c1ccc(OCCN(C)C)cc1)c1ccccc1 | x | x | x | 29&12 | 99&99
O=C(/C=C/c1ccc(Cl)cc1Cl)NCc1ccco1 | -42 | 2% | -7 | 1.5 | -7
CCCCNC(=O)O[C@@H]1C[C@@H]2CCN3C(=O)CCC[C@H]([C@H]1CC)[C@H]23 | x | x | x | -1.9 | -7
Cc1cccc2cc(CN(Cc3cccs3)C(=S)NCc3ccco3)c(=O)[nH]c12 | -9 | 8% | 14 | 0.8 | 5
COc1ccc(C)cc1NC(=O)CSc1nnc(COc2ccc(C)cc2)n1Cc1ccco1 | -46 | 5% | -8 | -1.5 | -2
O=C(c1ccc(CN2CCOCC2)cc1)N1CCN(c2cccc(Cl)c2)CC1 | -23 | -4% | 3 | -2.1 | 4
O=C(COc1ccc(Br)cc1)Nc1ccc2oc(=O)ccc2c1 | x | x | x | -0.8 | 86
CCC(C(=O)O)N1C(=O)/C(=C/c2cccn2C)SC1=S (stereo not drawn) | -32 | 7% | 8 | x | 3
O=S(=O)(NC1CC1)c1ccccc1 | x | x | x | -3.9 | -1
N#C/C(=C\c1ccc(C(=O)O)cc1)S(=O)(=O)c1cc(Br)ccc1Br | x | 17% | 1 | -4.0 | -6
CCCn1nc(NS(=O)(=O)c2ccc(F)cc2)c2cc3ccccc3nc21 | x | x | x | -0.8 | 0
CCNC(=S)NS(=O)(=O)c1ccc(C)cc1 | -29 | -7% | 1 | -8.8 | 5
CC1CCOC(c2coc3ccccc3c2=O)O1 (stereo not drawn) | -7 | -4% | -4 | -0.7 | -6
CC(C)c1ccc(Cc2nnc(NCCCO)[nH]c2=O)cc1 | x | x | x | 1.4 | u
Cc1cccc(C)c1NC(=S)NC(=O)CCc1ccccc1 | -23 | 11% | -3 | 8.8 | 13
CCc1ncc(/C=C2\C(=O)Nc3ccccc32)[nH]1 | x | -11% | x | -1.4 | 11
O=C(/C=C/c1ccccc1[N+](=O)[O-])Nc1cccnc1 | -31 | -3% | -2 | -2.2 | 3
NC(=O)C1CC(=O)N(CCc2ccc(F)cc2)C1 (stereo not drawn) | x | x | x | -6.3 | -1
CC(C)(C)n1ncc2c(=O)n(CC(=O)c3ccccc3)cnc21 | -29 | 6% | 7 | 1.1 | 7
COc1cccc2c1OC1(C)CC2/C(=C(\C)O)C(=O)N1 (stereo not drawn) | -10 | 0% | 9 | -3.0 | u
O=C(OCn1nnc2ccccc2c1=O)c1ccc(O)cc1 | x | 2% | -4 | -1.6 | -3
O=C1Nc2ccccc2OC1CC(=O)N1CCN(c2cccc(C(F)(F)F)c2)CC1 (stereo not drawn) | -34 | 2% | -10 | 2.8 | x
N#C/C(=C/c1ccccc1)C(=O)NCc1ccccc1 | x | -2% | -2 | 2.9 | 3
COc1cc(CNC(=O)CCCC(=O)c2ccccc2)cc(OC)c1OC | x | x | x | -1.7 | -2
O=C(C1CC1)N1CCN=C1SCc1ccccc1 | -32 | -6% | -9 | 1.3 | -14

Arranged by count of non-hydrogen atoms (smallest number first): some entries from above.
SMILES | YopH inh | Mtb growth | Arbovirus inh | RecA splice inh | Mtb bLac sens | others
CCNC(=S)NS(=O)(=O)c1ccc(C)cc1 | -29 | -7% | 1 | -8.8 | 5
CC1CCOC(c2coc3ccccc3c2=O)O1 (stereo not drawn) | -7 | -4% | -4 | -0.7 | -6
O=C(/C=C/c1ccc(Cl)cc1Cl)NCc1ccco1 | -42 | 2% | -7 | 1.5 | -7
CCCCNC(=O)O[C@@H]1C[C@@H]2CCN3C(=O)CCC[C@H]([C@H]1CC)[C@H]23 | x | x | x | -1.9 | -7
CC/C(=C(\c1ccccc1)c1ccc(OCCN(C)C)cc1)c1ccccc1 | x | x | x | 29&12 | 99&99

New compounds follow.
SMILES | YopH inh | Mtb growth | Arbovirus inh | RecA splice inh | Mtb bLac sens | others
COC(=O)CC1C(=O)NCCN1C(=O)OC(C)(C)C (stereo not drawn) | x | 4% | 6 | 0.2 | -8
CN(C)CCN(C(=O)c1ccc(S(=O)(=O)N(C)CC2CCCO2)cc1)c1nc2cc3c(cc2s1)OCO3 (stereo not drawn) | x | x | x | -1.2 | -7
O=C(CNC(=O)OCc1ccccc1)Oc1cc2oc(=O)cc(-c3ccccc3)c2cc1Cl | -41 | x | -24 | -106 | -10
O=C(Nc1cccc(O)c1)c1cc(S(=O)(=O)N2CCCC2)ccc1Cl | 2 | -13% | 6 | 3.8 | 10
COc1ccc(/C=C2\SC(N3CCc4ccccc4C3)=NC2=O)cc1 | -1 | 4% | 17 | 13 | 4
COC(=O)C1=C(C)OC(N)=C(C#N)C1c1ccsc1 (stereo not drawn) | -23 | -6% | -1 | -2.0 | -2
CC(=O)c1cc(CN2C(=O)CCC2=O)cs1 | -26 | 0% | 3 | 3.4 | -1 | Arbovirus inh repeat=1
O=C(Cc1cccs1)NCc1cn2ccccc2n1 | -45 | x | -4 | -3.4 | 4
Cn1c(=O)n(C)c2cc(/C=N/NC(=O)c3cccc(Br)c3)ccc21 | -69 | -14% | 3 | 4.5 | -8
COC(=O)c1ccccc1NC(=O)CSc1n[nH]c(C)n1 | -3 | 0% | 4 | -1.0 | -9
O=S(=O)(NCc1cccnc1)c1ccc(Cl)cc1 | x | x | x | -0.8 | 9
O=C(c1ccc(Br)cc1)N1CCC2(CC1)NCCc1[nH]cnc12 | x | x | x | 0.7 | 0
NC(=O)C(C(=O)/C=C/c1ccc(Cl)cc1)=C1SCCS1 | x | -2% | x | x | 26
COc1cc(OC)cc(-n2nnnc2SCC(=O)N2CCCc3ccccc32)c1 | -41 | 6% | -6 | -1.0 | 1
CCCOc1ccc(C(=O)CCNc2cccc(Cl)c2)cc1 | x | 11% | 2 | 0.7 | 6
C/C(=N\NC(=O)c1ccc(NS(=O)(=O)c2cccs2)cc1)c1ccccc1 | -27 | 6% | 7 | -2.1 | 3
C/C=C/c1ccc(OCC(O)CN(C)Cc2ccc(SC)cc2)c(OC)c1 (stereo not drawn) | x | x | x | 3.1 | 88
COc1ccc(NC2CCCN(C(=O)CSc3ccccn3)C2)cc1OC (stereo not drawn) | x | x | x | -11 | -6
Cc1cc(=O)n2[nH]cnc2n1 | -9 | -3% | 1 | 0.5 | -2
OC(CN(c1ccccc1)c1ccccc1)Cn1cnc2ccccc21 (stereo not drawn) | -37 | 20% | 9 | -0.1 | -16
O=C(Oc1coc(CSc2ncccn2)cc1=O)c1ccccc1[N+](=O)[O-] | x | -4% | 9 | 1.6 | 3
COC(=O)CSc1nc(N)c2c3c(sc2n1)CCCC3 | -9 | 2.5µM* | 1 | -2.7 | 91
CCN(CC)C(=O)Oc1ccc(Br)cc1C(=O)Nc1ccc(F)cc1F | x | -3% | x | x | -6
CN(C)S(=O)(=O)c1ccc(NC(=O)CN2CCc3ccccc32)cc1 | x | -8% | x | -5.8 | -8
Cc1c(NC(=O)OCCNC(=O)COc2c(Cl)cccc2Cl)sc(=S)n1C | 4 | -1% | -5 | 0.6 | -6
SMILES | YopH inh | Mtb growth | Arbovirus inh | RecA splice inh | Mtb bLac sens | others
CSc1nc2ccccc2cc1/C=C(\C#N)c1ccc(Cl)cc1Cl | -10 | 11% | -6 | 0.7 | 7
CNC(=O)CSc1nnc(-c2ccccn2)n1Cc1ccco1 | x | -18% | x | 1.0 | 2
CCOC(=O)N1CCC(NC(=O)Cn2ncc3ccccc32)CC1 | -29 | -6% | 3 | -2.5 | 0
CCC(C)(C)NC(=O)CN(Cc1ccc2c(c1)OCO2)C(=O)CCC(=O)Nc1cc(C)ccn1 | x | x | x | 0.6 | 3
O=C(Nc1ccccc1F)N(CCCN1CCOCC1)Cc1cc2cc3c(cc2[nH]c1=O)OCCO3 | -49 | 4% | 0 | 0.4 | -12
Cc1ccc2c(c1)nnn2C1CCN(C(=O)NC23CC4CC(CC(C4)C2)C3)CC1 | -27 | -1% | 3 | -1.5 | x
Cc1ccc(CNC(=O)CCS(=O)(=O)c2cc3c(cc2Cl)NC(=O)CO3)cc1 | x | x | x | -0.8 | 3
CN(C)CCNC(=O)c1ccccc1-c1cc2ccccc2c(=O)o1 | x | x | x | -3.1 | 0
COc1ccccc1NC(=O)/C=C/C(N)=O | -12 | 3% | -45 | 0.4 | -2
COC(=O)c1[nH]c2cccc(Cl)c2c1NC(=O)CN1CCCCC1C (stereo not drawn) | -36 | -13% | -1 | 2.0 | 7
COC(=O)CSc1nnc(CNC(=O)Cc2ccccc2)n1C | -37 | -7% | 1 | -0.9 | -6
Cc1ccc(NC(=S)N(CCCN2CCC(C)CC2)Cc2ccco2)cc1 | x | 6% | 6 | -0.9 | -13
COc1ccccc1NC(=O)CSc1nnc(C)n1CCc1ccccc1 | -34 | -1% | 9 | -0.1 | -2
Cc1ccc(S(=O)(=O)N2CCCCC2)cc1C(=O)Nc1ccc2cn[nH]c2c1 | -47 | -6% | 3 | 5.9 | -12
CCN(CC)CCCNC(=O)CCc1ccccc1 | -4 | -4% | 10 | -3.2 | -9
O=C(c1ccccn1)N1CC=C(c2ccccc2)CC1 | x | 0% | 3 | x | x
O=C(CCNS(=O)(=O)c1ccc(Cl)cc1)OCC(=O)c1ccc[nH]1 | x | -4% | x | 1.0 | 39
CCOc1ccc(Cl)cc1Nc1nc(NCCO)nc(N2CCCC2)n1 | x | 7% | x | -1.1 | 8
Fc1ccc(-c2cc3nc4c(c(N5CCOCC5)n3n2)CCCC4)cc1 | -38 | 5% | -2 | -0.7 | 8
CCOC(=O)c1nnn(-c2nonc2N)c1COc1c(C=O)cccc1OC | 0 | -10% | 4 | -0.3 | 15
O=C(Nc1ccc(F)cc1)c1cc(-c2ccncc2)nc2c(Cl)cccc12 | x | x | x | -5.3 | 92
Cc1cccc(OC(C)C(=O)Nc2nccs2)c1 (stereo not drawn) | x | x | x | 5.1 | -4
O=C(c1ccc(Br)cc1)c1coc2ccc(O)cc12 | x | x | x | 7.2 | -4
O=C(Cn1nnc(-c2ccccc2)n1)NNC(=O)c1ccco1 | x | -7% | -8 | 1.7 | -10
COc1ccccc1CCc1nnc(CCC(=O)NCCOc2cccnc2)o1 | x | -6% | -1 | 2.5 | -2

2 compounds picked at random from those above, as already listed:
SMILES | YopH inh | Mtb growth | Arbovirus inh | RecA splice inh | Mtb bLac sens | others
CCOc1ccc(Cl)cc1Nc1nc(NCCO)nc(N2CCCC2)n1 | x | 7% | x | -1.1 | 8
Cc1ccc(NC(=S)N(CCCN2CCC(C)CC2)Cc2ccco2)cc1 | x | 6% | 6 | -0.9 | -13

(next part)
SMILES | YopH inh | Mtb growth | Arbovirus inh | RecA splice inh | Mtb bLac sens | others
CCCCCC(=O)OC(CN1CCCCCC1)CN1CCCC1=O (stereo not drawn) | x | 7% | x | 1.4 | -11
CN1CCN(C(=S)NC(=O)c2ccc(S(=O)(=O)N3CCOCC3)cc2)CC1 | x | 6% | 10 | -6.8 | 1
O=C(Oc1ccccc1Cl)c1ccc2c(=O)n3c(nc2c1)CCC3 | x | x | x | 5.3 | 78
CCc1ccc(NC(=O)C2CCCN2C(=O)NC2CCCCC2)cc1 (stereo not drawn) | x | x | x | -0.8 | -9
S=c1[nH]nc(C2CCCCC2)n1/N=C/c1cccc(Br)c1 | x | x | x | -1.4 | 0
CCC(C)NC(=O)CC1Oc2ccc(C)cc2NC1=O (stereo not drawn) | -41 | -13% | 4 | -0.7 | u
COc1ccc(N2Cc3ccccc3/C2=N\C(=O)Nc2ccccc2)cc1 | x | 19% | 7 | 5.4 | -1
CCC(CC)c1nnc(NC(=O)C23CC4CC(CC(NC(C)=O)(C4)C2)C3)s1 | x | x | x | -0.8 | -12
Fc1cccc(CNC2CCN(CCc3ccccc3)CC2)c1 | x | x | x | -2.0 | -1
O=C(COc1ccc2oc(-c3ccccc3)cc(=O)c2c1)NCc1ccco1 | -25 | -1% | -9 | -2.7 | 1
CCc1ccc(NC(=O)c2cnc(N3CCN(c4ccccn4)CC3)c3ccccc23)cc1 | x | 0.44µM* | -2 | 7.1 | -1
Cc1ccccc1-n1c(SCc2csc(Nc3ccccc3)n2)nnc1-c1cccnc1 | -1 | 2% | -7 | 4.9 | 0
O=C(CCc1nc2ccccc2c(=O)[nH]1)Nc1ccccc1N1CCCC1 | x | x | x | 0.5 | -4
O=C(CNC(=O)c1ccccc1Cl)c1ccccc1 | x | x | x | -1.0 | 7
O=C1OC(C(=O)NCc2ccccc2)Cc2ccccc21 (stereo not drawn) | x | -5% | 3 | 3.0 | -1
CSc1ccccc1NC(=O)CSc1n[nH]c(C)c1[N+](=O)[O-] | x | 3% | 1 | -4.9 | -9
CCOc1ccccc1CNS(=O)(=O)c1ccc2[nH]c(=O)sc2c1 | -14 | 9% | 10 | 1.5 | 5
CC(C)(C)OC(=O)N/N=C\C=C\c1ccc2c(c1)OCO2 | -7 | 6% | -14 | x | 2
CSc1cccc(-c2nnc(NC(=O)c3cccc(N4C(=O)CCC4=O)c3)o2)c1 | x | x | x | 0.8 | 26
